UCH37 inh: inhibitors of human UCH37 deubiquitinase, primary screen, biochemical, Ub-AMC cleavage, fluorescence. purified proteasome/UCH37. inhibition, % (test concentration not listed). 330,000 tested, 0.33% active;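 active = mean of two replicates above 20%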;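 note: 0% = compound-free wells with enzyme and 100% = wells lacking proteasome; stock transfer was 100 nL into about 20 µL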
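Assay system: Proteasome-bound UCH37. Buffer or medium: pH 7.4 Tris-HCl (50 mM) with ovalbumin, ATP-MgCl2, DTT. Incubation: 30 min preincubation with enzyme, 25 min cleavage at room temperature. Measured by: fluorescence, ex 355 nm, em 460 nm. Read-out basis: percent inhibition. Control set: wells without proteasome as full block, compound-free enzyme plus substrate as uninhibited.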
Ecoli rRNA inh: reduced GFP signal of wild-type E. coli, primary screen, bacterial rRNA inhibitor project, GFP/RFP fluorescence, OD600, single point; E. coli WT GFP vs humanized-ribosome RFP mutants, 24 h; active compounds read low; DMSO median 0, no signal -100; GFP signal change (wild-type ribosome), % (concentration not given with the values); 350,000 tested, 1.6% active;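 active = significant combined selectivity score with lowered wild-type GFP, culture density cut under 30%, mutant RFP and density less affected; inactive = any of these conditions unmet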; note: one replicate is shown; some compounds called inactive have numbers as strong as hits
E coli growth: E. coli growth inhibition, primary screen, OD600. OD600 absorbance (concentration not given with the values). 330,000 tested, 0.21% active. AID 1053175, 2014. Escherichia coli growth, 23 h; active compounds read low;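 active = OD600 absorbance below the run mean of sample wells minus 3.6 SD, in any replicate, cut at about 0.56 in these data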;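 note: stock transfer was 300 nL into about 60 µL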
ALR inh: inhibitors of human ALR sulfhydryl oxidase, primary screen, biochemical, H2O2 detection, HRP-luminol luminescence, single point | AID 485317, 2010 | inhibition, % (test concentration not listed) | 290,000 tested, 3.8% active | purified ALR, DTT oxidation;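 active = mean and each replicate at 75% or more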;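 note: stock transfer was 7.5 nL into about 7.5 µL; 0% = neutral wells and 100% = wells with inactivated enzyme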
Beta2AR agonist: beta2AR agonists driving receptor internalization, primary screen, cell-based, FAP fluorogen, flow cytometry; Am2.2-beta2AR cells; reference of the scale not given here; response, % (concentration not given with the values); 340,000 tested, 0.43% active; AID 504454, 2011;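 active = response above a set limit, near 3 SD of response in nonfluorescent compounds, cut at about 42% in these data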;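 note: stock transfer was 100 nL into about 11 µL; a reference agonist was the positive control; negative values mostly stem from fluorescent compounds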
Target sequence (P07550 whole entry, looked up): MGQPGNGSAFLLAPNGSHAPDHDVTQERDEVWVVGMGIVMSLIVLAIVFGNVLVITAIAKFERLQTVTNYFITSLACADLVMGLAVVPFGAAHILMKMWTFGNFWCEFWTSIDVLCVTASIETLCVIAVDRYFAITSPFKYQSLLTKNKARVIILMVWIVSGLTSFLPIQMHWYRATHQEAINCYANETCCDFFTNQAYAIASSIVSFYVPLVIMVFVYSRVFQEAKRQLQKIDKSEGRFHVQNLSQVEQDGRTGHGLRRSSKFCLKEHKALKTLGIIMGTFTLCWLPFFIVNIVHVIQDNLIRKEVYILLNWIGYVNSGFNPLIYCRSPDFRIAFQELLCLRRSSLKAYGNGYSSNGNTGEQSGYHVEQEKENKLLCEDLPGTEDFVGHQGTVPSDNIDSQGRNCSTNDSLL
HNF4A DNA FP: change in binding of human HNF4A to DNA, primary screen, biochemical, fluorescence polarization, FITC-DNA. Hepatocyte nuclear factor 4-alpha (Homo sapiens), P41235. 1 h. activity change, % at 10 µM. 360,000 tested, 0.3% active; in the data active = activity change above about 30%, passing the limit was not always enough;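 note: controls were the assay level and a saturating level of protein; the project sought stronger binding though the title names inhibitors; some compounds called inactive have numbers as strong as hits; positive values seem to mean higher polarization but the record does not say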
Target sequence (P41235 whole entry, looked up): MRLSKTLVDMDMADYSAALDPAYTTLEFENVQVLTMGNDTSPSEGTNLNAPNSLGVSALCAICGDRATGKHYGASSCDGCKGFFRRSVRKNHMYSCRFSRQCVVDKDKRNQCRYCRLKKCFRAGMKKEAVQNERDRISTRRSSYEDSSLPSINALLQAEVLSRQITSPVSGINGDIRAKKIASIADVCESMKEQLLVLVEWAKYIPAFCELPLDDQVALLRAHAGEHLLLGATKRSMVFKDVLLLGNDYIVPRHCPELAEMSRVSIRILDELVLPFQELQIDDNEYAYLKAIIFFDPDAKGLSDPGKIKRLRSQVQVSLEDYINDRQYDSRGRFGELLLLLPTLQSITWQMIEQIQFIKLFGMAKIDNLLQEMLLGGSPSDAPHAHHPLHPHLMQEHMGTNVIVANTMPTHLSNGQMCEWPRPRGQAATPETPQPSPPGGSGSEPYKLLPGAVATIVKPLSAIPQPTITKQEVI
FGF22 binding: binders of human FGF22 protein, primary screen, FGF22 synaptogenesis inhibitor project, biophysical, thermal shift, single point; 340,000 tested, 1.5% active; recombinant FGF22 thermal shift, SYPRO orange fluorescence; percent of sucrose octasulfate shift, DMSO zero; calls only at 9.99 µM; AID 651658, 2012; Fibroblast growth factor 22 (Homo sapiens), Q9HCT0;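 active = melting point raised past a set limit in the mean and every replicate; three in four hits are not shown here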
Target sequence (Q9HCT0 whole entry, looked up): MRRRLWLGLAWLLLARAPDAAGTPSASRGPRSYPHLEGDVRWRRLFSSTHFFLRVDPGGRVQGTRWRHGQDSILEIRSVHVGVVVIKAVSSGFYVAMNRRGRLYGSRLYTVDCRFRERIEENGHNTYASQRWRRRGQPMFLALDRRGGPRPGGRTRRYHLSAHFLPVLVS
Ecoli rRNA inh OD600: recorded beside Ecoli rRNA inh, whose call it bears; OD600 change, %; measured here: OD600 growth;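 optical density of the mix in the first replicate; 0 = DMSO median and -100 = no signal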
Ecoli rRNA inh RFP: also measured in Ecoli rRNA inh; calls as there; RFP signal change, %; measured here: RFP humanized mutant strains;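 first replicate; 0 = DMSO median and -100 = no signal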
The depositor's hits bear a star; i = inactive; x = not tested or not shown.

SMILES	UCH37 inh	Ecoli rRNA inh	Ecoli rRNA inh OD600	Ecoli rRNA inh RFP	E coli growth	ALR inh	Beta2AR agonist	HNF4A DNA FP	FGF22 binding
COc1ccc(NC(=O)NNC(=O)COc2cc(C)c(Cl)c(C)c2)c(OC)c1	1.5	2	0	-0.8	0.73	-2	-2	0.1	i
O=C(CN1CCCCCC1)Nc1ccc(Cl)cc1F	0.0	7	16	-0.4	0.67	4	-7	-0.4	i
CCC(C(=O)NC1CCCCC1)n1c2ccccc2c2nc(=O)cc(C)n21 (stereo unspecified)	1.4	14	6	-2.9	0.71	-2	-3	0.4	i
Cc1ccc(/C=C/c2nnc(-c3cccc(C)c3)o2)cc1	-1.0	3	13	0.5	0.72	-4	2	-2.7	i
Cc1ccc(OCCC(=O)OC(C)C(=O)Nc2c(C)n(C)n(-c3ccccc3)c2=O)cc1 (stereo unspecified)	0.7	7	6	-1.9	0.69	3	-23	2.0	i
O=C(CSc1nnc2ncccn12)N1CCCCCC1	-1.0	x	x	x	0.68	-26	-14	-3.9	x
CC(C)CN=C(NS(=O)(=O)c1ccccc1)C(Cl)(Cl)Cl	0.8	x	x	x	0.72	15	28	1.0	i
Cc1cc(=O)oc2cc(OCc3ccc(S(=O)(=O)N4CCOCC4)cc3)ccc12	-44	x	x	x	0.72	-20	1	7.1	x
CCCNNC(=O)C(O)(c1ccccc1)c1ccccc1	0.4	x	x	x	0.66	x	4	-2.4	x
COc1ccccc1-c1nnc(NC(=O)C2CCCN2S(=O)(=O)c2cccs2)o1 (stereo unspecified)	x	1	10	-1.2	x	x	x	1.1	i
Cc1ccc(-c2nn(CCC(=O)NN3CCOCC3)c(=O)c3ccccc23)cc1	3.8	12	15	0.3	0.67	-2	-1	0.4	i
O=C(NC1CCCC1)C1CCCN(S(=O)(=O)c2ccc(F)cc2)C1 (stereo unspecified)	-2.9	5	11	-2.8	0.66	-1	1	-1.6	i
Cc1cccc(-n2c(-c3csc(C)c3C)n[nH]c2=S)c1	2.8	-10	-8	2.0	0.71	x	1	5.6	i
Cc1ccc(C(=O)CSc2nnc(COc3cccc(C)c3)o2)cc1	-0.2	-15	-19	-4.9	0.67	1	1	-2.2	x
CCc1ccc(Nc2n[n+](-c3ccccc3)c(-c3c(Cl)cccc3Cl)s2)cc1	0.3	-59	-79	-31	0.47*	-7	80*	3.4	i
CN(C)c1ccc(CN2CCCCC2)cc1	1.8	x	x	x	0.7	15	0	-4.0	x
CC(=O)Nc1cccc(NC(=O)C2CCCN2C(=O)Nc2ccc(Cl)cc2)c1 (stereo unspecified)	-0.1	x	x	x	0.66	x	13	2.4	x
Cc1ccc(C(=O)C2CC2)c(C)c1	3.1	6	6	1.0	0.68	x	8	3.2	i
O=C(CNC(=O)C1CCCCC1)Nc1ccc(F)c(Cl)c1	1.2	10	9	0.9	0.7	12	-3	2.4	i
COCC(=O)N(C)c1nnc(-c2ccc([N+](=O)[O-])cc2)s1	3.8	1	0	-1.2	0.66	-5	-5	1.3	i
CC(=O)c1cccc(-c2csc3ncnc(Sc4nnnn4C)c23)c1	x	3	1	0.6	x	x	x	0.2	i
O=C(CN(C(=O)Cn1nnc(-c2cccs2)n1)c1ccc2c(c1)OCCO2)NCC1CCCO1 (stereo unspecified)	1.8	x	x	x	0.68	30	-3	-1.7	x
CCc1[nH]nc(C(=O)N2CCCC(N3CCN(c4ccccc4C)CC3)C2)c1C (stereo unspecified)	5.3	0	-3	-0.1	0.66	16	0	1.5	i
Cc1sc2nc(C3CC3)nc(NCCNS(=O)(=O)c3ccccc3)c2c1C	0.0	-36	-33	-2.4	0.69	-11	-7	0.8	i
COC(=O)[C@@H]1C[C@@]2(O)[C@H](O)[C@H](O)[C@H](O)C[C@H]2N1Cc1cc(OC)cc(OC)c1	3.2	4	-11	14	x	x	-9	0.6	i
COc1c(N2CCNC(C)C2)c(F)cc2c(=O)c(C(=O)O)cn(C3CC3)c12 (stereo unspecified)	-32	x	x	x	0.061*	1	x	x	x
CC(C)(C)OC(=O)NCCCCCNC(=O)c1nc[nH]c1C(=O)N1CCc2ccccc2C1	2.2	-3	-5	3.4	0.69	-7	-2	-3.5	i
O=S(=O)(c1ccc(Cl)cc1)N1CCCCCC1	1.3	6	-4	-2.7	0.69	-2	2	-12	i
Cc1c(Cl)cccc1NC(=O)C1CCN(c2cnccn2)CC1	-71	4	5	-4.3	0.7	-5	0	-3.4	x
Cc1ccc(CNC(=O)c2ccc(N3CCc4ccccc43)c([N+](=O)[O-])c2)cc1	5.3	-6	-11	-9.7	0.7	-6	15	0.8	i
CC(=NNC(=O)c1ccncc1)c1ccc2ccccc2c1O	x	-5	-37	-0.3	x	x	-30	143	i
CC(=O)OC1CCC2C3CCc4cc(O)ccc4C3CCC12C (stereo unspecified)	x	x	x	x	x	x	-7	1.4	i
COc1ccc(CC(=O)NC2CCSc3ccccc32)cc1OC (stereo unspecified)	2.7	4	2	1.4	0.68	-18	5	-0.8	i
Cc1nc([N+](=O)[O-])cn1CC(O)c1ccc(F)cc1 (stereo unspecified)	5.9	-2	-4	-0.2	0.65	x	-15	1.9	i
COc1ccc2nc(Nc3ccccc3OC)sc2c1	1.6	-40	-60	-2.0	0.65	99*	-1	0.5	i
CN(CC(=O)NCc1ccncc1)S(=O)(=O)c1ccc(F)cc1	0.6	8	-2	-7.7	0.69	-4	-4	-0.9	i
COc1ccc(C(=O)N2CCN(c3ccc(C)c(C)c3)CC2)cc1OC	0.5	3	0	4.0	0.69	63	-1	-1.2	i
COc1ccccc1CCNC(=O)C(=O)NCC1OCCN1S(=O)(=O)c1ccc(F)cc1 (stereo unspecified)	x	-16	-12	4.3	x	-3	-3	0.7	i
CN(C)C(=O)COc1ccc(Br)cc1	2.7	x	x	x	0.65	-1	3	-0.4	x
Cc1ccc(NC(=O)C(c2ccccc2)c2ccccc2)nc1	1.0	-31	-57	-3.9	0.68	-3	-1	-4.0	i
COc1ccc(/C=C2\SC(=S)N(CCC(=O)NC3=NCCS3)C2=O)cc1OC	8.5	2	0	22	0.75	-7	6	53*	i
COc1ccc(CCNC(=O)CC(C)S(=O)(=O)c2ccc3c(c2)NC(=O)CO3)cc1OC (stereo unspecified)	6.1	4	0	-0.7	0.7	-6	-2	3.8	i
CCOC(=O)N/N=C/c1ccc(N2CCOCC2)s1	x	x	x	x	x	99*	-3	1.3	x
COc1ccc(CN2C(=O)C(O)(CC(=O)c3c(C)n[nH]c3C)c3ccccc32)cc1OC (stereo unspecified)	5.3	x	x	x	0.66	2	7	-7.0	x
Cn1c(=S)[nH]c2ccccc21	4.0	x	x	x	0.74	84*	-2	2.2	x
Cc1ccc(S(=O)(=O)N2CCN(C(=O)c3c(C)nn(-c4ccccc4)c3Cl)CC2)cc1	-0.1	x	x	x	0.65	x	7	1.5	x
COc1ccc(NC(=S)NCC(c2cccnc2)N2CCOCC2)cc1 (stereo unspecified)	5.2	-2	3	-2.3	0.71	1	1	-2.3	i
Cc1ccc(N=Cc2c(O)n(C)c(=O)n(C)c2=O)nc1	7.3	x	x	x	0.73	1	-5	-2.5	x
S=C(Nc1ccc(Oc2ccccc2)cc1)NC1CCCCC1	3.5	x	x	x	0.68	x	-13	-0.2	x
Cn1ccc2c(N(Cc3ccccc3)Cc3ccccc3)cc3c(c21)C1CCC3O1 (stereo unspecified)	x	-2	-5	-9.3	x	x	x	2.5	i
CCn1c(=O)cc(SCC(=O)N2CCC(C)CC2)c2ccccc21	-3.8	x	x	x	0.67	-1	-8	0.4	x
CCC(C)(C)NC(=O)CN(CC1CCCO1)C(=O)CNS(=O)(=O)c1ccccc1 (stereo unspecified)	0.9	0	-1	-2.0	0.67	0	-2	1.4	i
COc1ccc(O)c(/C=N/NC(=O)c2ccc(N3CCCC3=O)cc2)c1	x	-12	3	5.9	x	7	-22	1.2	i
COc1ccc(N2CCN(Cc3nc4scc(-c5cccs5)c4c(=O)[nH]3)CC2)cc1	0.4	-3	1	3.4	0.71	-10	-31	12	i
CC1CC1C(=O)NCCc1ccc(Cl)cc1 (stereo unspecified)	0.2	x	x	x	0.67	x	8	-0.2	x
Cc1ccc(C(=O)COC(=O)CCNS(=O)(=O)c2ccccc2F)cc1	3.3	-2	-4	-1.1	0.68	x	-4	-3.1	i
CCOC(=O)C(CC)Sc1nnc2n1C(C)(C)Cc1ccccc1-2 (stereo unspecified)	1.7	-13	-6	-6.8	0.69	-1	28	0.7	x
CCN(CC)S(=O)(=O)c1cccc(C(=O)NCCc2ccccc2)c1	0.0	-1	1	1.3	0.71	19	9	-3.4	x
CC(=O)N1CCN(S(=O)(=O)c2cccc(C(=O)Nc3ccc4c(c3)OCO4)c2)CC1	2.4	8	5	0.8	0.67	-17	-2	-7.0	i
COc1cccc(NC(=O)CN(C)C(=O)c2ccccn2)c1	1.6	2	9	-2.6	0.7	-11	-3	1.2	i

Gathered by group: those above containing fluorine
SMILES	UCH37 inh	Ecoli rRNA inh	Ecoli rRNA inh OD600	Ecoli rRNA inh RFP	E coli growth	ALR inh	Beta2AR agonist	HNF4A DNA FP	FGF22 binding
O=C(CN1CCCCCC1)Nc1ccc(Cl)cc1F	0.0	7	16	-0.4	0.67	4	-7	-0.4	i
O=C(NC1CCCC1)C1CCCN(S(=O)(=O)c2ccc(F)cc2)C1 (stereo unspecified)	-2.9	5	11	-2.8	0.66	-1	1	-1.6	i
O=C(CNC(=O)C1CCCCC1)Nc1ccc(F)c(Cl)c1	1.2	10	9	0.9	0.7	12	-3	2.4	i
COc1c(N2CCNC(C)C2)c(F)cc2c(=O)c(C(=O)O)cn(C3CC3)c12 (stereo unspecified)	-32	x	x	x	0.061*	1	x	x	x
Cc1nc([N+](=O)[O-])cn1CC(O)c1ccc(F)cc1 (stereo unspecified)	5.9	-2	-4	-0.2	0.65	x	-15	1.9	i
CN(CC(=O)NCc1ccncc1)S(=O)(=O)c1ccc(F)cc1	0.6	8	-2	-7.7	0.69	-4	-4	-0.9	i
COc1ccccc1CCNC(=O)C(=O)NCC1OCCN1S(=O)(=O)c1ccc(F)cc1 (stereo unspecified)	x	-16	-12	4.3	x	-3	-3	0.7	i
Cc1ccc(C(=O)COC(=O)CCNS(=O)(=O)c2ccccc2F)cc1	3.3	-2	-4	-1.1	0.68	x	-4	-3.1	i

Further structures follow.
SMILES	UCH37 inh	Ecoli rRNA inh	Ecoli rRNA inh OD600	Ecoli rRNA inh RFP	E coli growth	ALR inh	Beta2AR agonist	HNF4A DNA FP	FGF22 binding
COc1ccccc1N(C)S(=O)(=O)c1ccc(C(=O)Nc2cc(OC)c(OC)c(OC)c2)cc1	4.8	-4	-7	-0.2	0.72	x	2	-1.2	i
CC(=O)c1c(C)[nH]c(C(=O)NCC2CCCCC2)c1C	2.7	7	-10	0.5	0.7	0	-10	2.1	i
O=C(NC1CCCC1)C1CCCN1C(=O)Nc1ccc(Cl)cc1 (stereo unspecified)	-1.9	x	x	x	0.7	x	-7	-5.0	x
Cc1cc(C)nc(Nc2nc(C(N)c3ccccc3)cs2)n1 (stereo unspecified)	x	5	5	0.4	x	x	x	7.3	i

Assay outcomes as filed in PubChem BioAssay.

The list is partial. The share of hits here may be higher or lower than overall.
